# VDR inhibitor: inhibitors of human vitamin D receptor; AID 504847; VDR-SRC2-3 peptide fluorescence polarization, 2 h; Potency, µM, for the others: max response, negative = inhibition, most hits filed as inhibitors; hit rate 0.93% among 400,000; P11473; active = well fitted inhibition curve with a large enough effect; inconclusive = small, poorly fitted or top-dose-only effect, or another doubt; inactive = no such curve, though single readings can be large or run the other way; note: series mostly up to about 120 µM
# Target sequence (P11473 whole entry, looked up): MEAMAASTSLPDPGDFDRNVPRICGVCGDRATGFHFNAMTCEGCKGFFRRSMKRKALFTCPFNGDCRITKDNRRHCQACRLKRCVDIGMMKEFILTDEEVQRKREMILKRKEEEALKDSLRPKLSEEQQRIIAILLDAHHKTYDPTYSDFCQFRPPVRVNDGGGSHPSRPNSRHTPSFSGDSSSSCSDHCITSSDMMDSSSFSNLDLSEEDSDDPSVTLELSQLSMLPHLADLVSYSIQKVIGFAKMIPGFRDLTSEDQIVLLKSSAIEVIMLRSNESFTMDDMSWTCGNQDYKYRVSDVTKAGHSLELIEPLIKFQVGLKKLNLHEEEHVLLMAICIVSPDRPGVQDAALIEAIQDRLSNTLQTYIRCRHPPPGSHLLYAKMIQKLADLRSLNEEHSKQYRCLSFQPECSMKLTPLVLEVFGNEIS
#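 VDR–SRC2-3 interaction, FP format. Cmpds 23 nl via pintool, brief spin, 2 h ambient incubation.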
# The depositor's hits bear a star; ? = inconclusive; [ ] = remark or other dose. % is set by controls: 0 for no effect and ±100 for the full control effect; potency is the fitted concentration of half-maximal effect. These rows are one share of the data, so the mix of outcomes need not match the whole.
SMILES,VDR inhibitor
Cc1ccc(OCc2cc(=O)n3cc(C)sc3n2)c(NC(=O)c2ccco2)c1,16%
CC(C)CNC(=O)/C=C/C=C/CCCC/C=C/c1ccc2c(c1)OCO2,-4%
CC(C)CCOc1ccccc1C(N)=O,1%
CCc1ccc(NC(=O)CSc2nc(-c3ccc(C)cc3)nc3c2Cc2c(CO)cnc(C)c2O3)cc1,-3%
CCNC(=O)CCC(N)C(=O)O (configuration not stated),0%
CC1(C)C(O)C=C[C@@]2(C)C1CC(=O)O[C@@]1(C)C3=CC(=O)OC(c4ccoc4)[C@]3(C)CCC21 (some centres not stated),45µM*
O=C(c1ccc(F)cc1)N1CCC(C(=O)N2CCN(S(=O)(=O)c3cccc(Cl)c3)CC2)CC1,-19%
CC(=O)Nc1ccc(S(=O)(=O)N2CCN(Cc3cccs3)CC2)cc1,3%
Cn1ccnc1C(=O)c1cccc([N+](=O)[O-])c1,-12%
CSc1cccc(Nc2nc3c(S(=O)(=O)c4ccccc4)nnn3c3ccc(Cl)cc23)c1,-5%
O=C(CCc1nnc(CCCc2ccccc2)o1)NC(C1CC1)C1CC1,-22%
O=C(CCl)Nc1c2c(nn1-c1ccccc1)CSC2,?
Cc1ccc(S(=O)(=O)c2nc(S(C)(=O)=O)sc2N2CCN(C)CC2)cc1,1%
Cc1ccc(Cn2c(=O)n(-c3cc(C)cc(C)c3)c(=O)c3oc4ccccc4c32)cc1,12%
O=C(COC(=O)/C=C/c1ccc(F)cc1)NCc1ccco1,8%
CCNC(=O)NC(=O)COC(=O)c1cccc(S(=O)(=O)N2CC3(C)CC2CC(C)(C)C3)c1 (configuration not stated),10%
Cc1ccc(C(=O)COc2ccc3ccc(=O)oc3c2)cc1,-4%
COc1cccc(CN2CCC(C(=O)N3CCN(c4ccccc4F)CC3)CC2)c1,14%
COc1ccccc1OC1OC2COC(c3ccco3)OC2C(O)C1NC(C)=O (configuration not stated),9%
Cc1ccc(S(=O)(=O)N2CCCC(C(=O)NCCCN3CCCCC3C)C2)cc1 (configuration not stated),-1%
CC(C)CNC(=O)c1nc(-c2ccccc2)n(-c2ccccc2)n1,13%
O=C(NC1CCCC1)c1ccc2c(c1)N(Cc1ccccc1F)C(=O)c1ccccc1S2,19%
Nn1c(SCC(=O)NC(=O)NCc2ccco2)nnc1-c1ccc(OC(F)F)cc1,-10%
N#Cc1nn(-c2ccccc2)nc1N1CCCCC1,8%
O=C(NCCN1CCCCCC1)c1ccc(CS(=O)(=O)c2ccc(Br)cc2)o1,-2%

# 17 entries from above, with tabs:
smiles	VDR inhibitor
Cn1ccnc1C(=O)c1cccc([N+](=O)[O-])c1	-12%
CSc1cccc(Nc2nc3c(S(=O)(=O)c4ccccc4)nnn3c3ccc(Cl)cc23)c1	-5%
O=C(CCc1nnc(CCCc2ccccc2)o1)NC(C1CC1)C1CC1	-22%
O=C(CCl)Nc1c2c(nn1-c1ccccc1)CSC2	?
Cc1ccc(S(=O)(=O)c2nc(S(C)(=O)=O)sc2N2CCN(C)CC2)cc1	1%
Cc1ccc(Cn2c(=O)n(-c3cc(C)cc(C)c3)c(=O)c3oc4ccccc4c32)cc1	12%
O=C(COC(=O)/C=C/c1ccc(F)cc1)NCc1ccco1	8%
CCNC(=O)NC(=O)COC(=O)c1cccc(S(=O)(=O)N2CC3(C)CC2CC(C)(C)C3)c1 (configuration not stated)	10%
Cc1ccc(C(=O)COc2ccc3ccc(=O)oc3c2)cc1	-4%
COc1cccc(CN2CCC(C(=O)N3CCN(c4ccccc4F)CC3)CC2)c1	14%
COc1ccccc1OC1OC2COC(c3ccco3)OC2C(O)C1NC(C)=O (configuration not stated)	9%
Cc1ccc(S(=O)(=O)N2CCCC(C(=O)NCCCN3CCCCC3C)C2)cc1 (configuration not stated)	-1%
CC(C)CNC(=O)c1nc(-c2ccccc2)n(-c2ccccc2)n1	13%
O=C(NC1CCCC1)c1ccc2c(c1)N(Cc1ccccc1F)C(=O)c1ccccc1S2	19%
Nn1c(SCC(=O)NC(=O)NCc2ccco2)nnc1-c1ccc(OC(F)F)cc1	-10%
N#Cc1nn(-c2ccccc2)nc1N1CCCCC1	8%
O=C(NCCN1CCCCCC1)c1ccc(CS(=O)(=O)c2ccc(Br)cc2)o1	-2%

# Individual results from the results shown:
# `Cn1ccnc1C(=O)c1cccc([N+](=O)[O-])c1` | VDR inhibitor: -12%
# `CC1(C)C(O)C=C[C@@]2(C)C1CC(=O)O[C@@]1(C)C3=CC(=O)OC(c4ccoc4)[C@]3(C)CCC21` (some centres not stated) | VDR inhibitor: 45µM*

# The listing continues.
SMILES,VDR inhibitor
CCOc1ccc(CCNC(=O)C2CCN(S(=O)(=O)N3CCC(C)CC3)CC2)cc1OCC,-25%
NC(=O)CC(NC(=O)Cc1cccc2ccccc12)c1ccc(NC2CCCCC2)c([N+](=O)[O-])c1 (configuration not stated),15%
COc1ccc(NC(=O)c2ccc(NC(=O)CCS(=O)(=O)c3cccs3)cc2)cc1Cl,-15%
O=C(NCCCn1ccnc1)C(=O)NCC1OCCN1S(=O)(=O)c1cc(F)ccc1F (configuration not stated),-8%
O=C(NCc1cccs1)Nc1ccc(Cl)cc1,9%
O=C(O)C1C2C=CC(O2)C1C(=O)NCc1ccccc1Br (configuration not stated),-6%
COc1ccc2[nH]c(C(=O)NCCN3CCCCC3)cc2c1,-2%
COc1cc(NC(=O)c2cccc(Cl)c2Cl)ccc1NC(=O)c1cc2ccccc2o1,-14%
CC(=O)c1cccc(NC(=O)COC(=O)c2ccc3c(c2)OCO3)c1,-14%
CC(C)CC1(C)NC(=O)N(CC(=O)NC(=O)Nc2ccc3c(c2)OCCO3)C1=O (configuration not stated),6%
CC(C)C1CC(CCN)(c2ccccc2)CCO1 (configuration not stated),5%
COc1ccc(O)c(/C=N/NC(=O)CCC(=O)Nc2ccc(F)cc2)c1,-20%
CCC(C)n1c(=O)c2sccc2n2c(CCCC(=O)N3CCC(C(N)=O)CC3)nnc12 (configuration not stated),0%
CCN(CC)CCCN=C1N[C@@H](c2cccc(F)c2)C(C(=O)OC)=C(C)N1Cc1ccccc1,-9%
CCC(=O)Nc1c(C(=O)N2CCN(c3ccccn3)CC2)cnn1-c1ccc(Cl)cc1,5%
CCCCCCCSc1nsc(N)n1,8%
COc1cccc(N2CC(C(=O)NC3CCCCC3)CC2=O)c1 (configuration not stated),26%
COc1ccccc1-c1nccc(NC2CCNCC2)n1,-3%
CCCc1nc2oc3cc(OC)ccc3c(=O)c2c(=O)n1CCc1ccccc1,-6%
Cc1ccc(C)c(NC(=O)CN(C)C(=O)C2CCCC2)c1,10%
Cc1ccc(CNC(=O)CN(C(=O)C2(C)CC(=O)N=C3C=CC=CN32)c2cc(C)ccc2C)cc1 (configuration not stated),16%
CC1(C)Cc2c(cnn2-c2ccc(F)cc2)C(NC(=O)C2CCC2)C1 (configuration not stated),-7%
O=C(CCNC(=O)c1ccc([N+](=O)[O-])cc1)NC1CCCc2ccccc21 (configuration not stated),-2%
O=C(C[n+]1cccc2ccccc21)c1ccc([N+](=O)[O-])cc1,?
CCCNC(=O)c1onc(CSc2nc3ccccc3[nH]2)c1C(=O)NCCC,7%
SMILES,VDR inhibitor
O=C(Cn1nnc2sc3c(c2c1=O)CCCC3)Nc1ccc(F)c(Cl)c1,12%
CC1CCN(CCCNC(=O)c2ccc(N3CCCC3=O)cc2)CC1,-9%
CC1=NN(c2ccc([N+](=O)[O-])cc2)C(=O)C1[N+](=O)[O-] (configuration not stated),?
Cc1ccc(C(C(=O)NC2CCCC2)N2CCCC(C)C2)cc1 (configuration not stated),-5%
CC(C)c1ccc2nc3sc(C(=O)N4CCc5ccccc5C4)c(N)c3cc2c1,-14%
COc1ccc(O)c(C(=O)c2coc(=N)c(C(=O)Nc3ccc(SC(F)F)cc3)c2)c1,-4%
COC(=O)c1c(NC(=O)CS(=O)(=O)c2ccc(C)cc2)sc2c1CCCCC2,7%
O=S(=O)(c1ccccc1)N1N=C(c2ccc(Br)cc2)CC1c1ccco1 (configuration not stated),?
CCCC1CC(C)(C(=O)Cn2[nH]c(=O)ccc2=O)OC1=O (configuration not stated),-16%
COc1ccc(OC)c(S(=O)(=O)NCc2cn3cccc(C)c3n2)c1,-20%
CS(=O)(=O)N(CC(=O)NCc1ccc2c(c1)OCO2)c1cccc(Cl)c1,4%
CC(=O)Oc1ccc(C(=O)Nc2cccc(C(=O)Nc3ccccc3C(=O)O)c2)cc1,-21%
CN(C)C(=O)OCc1c(-c2ccccc2)ncc2ccccc12,-13%
CCc1nc2ccc(C(=O)NCCc3ccco3)cc2nc1CC,-4%
C=CCNC(=O)c1ccc(N(C)S(=O)(=O)c2ccc(OC)cc2)cc1,-1%
CCCSc1oc(-c2cccs2)nc1S(=O)(=O)c1ccc(Cl)cc1,6%
O=C(Oc1cccc2c(OC(=O)N3CCCC3)cccc12)N1CCCC1,-9%
OCCN1CCN(C(=S)Nc2ccccc2)CC1,-12%
COc1cc(NC(=O)CSc2nnc(C)n3c2cc2oc(C)cc23)cc(OC)c1,14%
CCC(C(=O)NC(C)(C)C)N(Cc1ccccc1Cl)C(=O)c1snc(C(N)=O)c1N (configuration not stated),15%
CC1CC(C)CN(C(=O)CCS(=O)(=O)c2ccc3c(c2)NC(=O)CS3)C1 (configuration not stated),18%
CCOC(=O)c1cccc(NC(=O)CSc2nnnn2C)c1,-7%
CCc1nc(C)ccc1OC(=O)C12CC3CC(CC(C3)C1)C2,-6%
Cc1ccc(NS(=O)(=O)c2cc([N+](=O)[O-])ccc2NNC(=S)Nc2cc(C)ccc2C)c(C)c1,?
O=C(c1cccc2ccccc12)C1CCCN(C(=O)CCCn2cncn2)C1 (configuration not stated),-3%
SMILES,VDR inhibitor
COC(=O)c1ccccc1NC(=O)c1cc2c(s1)-c1ccccc1OC2,5%
O=C(NCC(=O)N1CCCCC1)c1ccc2ccccc2c1,10%
O=C(Nc1ccc(NC(=O)c2ccco2)c(Cl)c1)c1ccc2c(c1)OCCO2,3%
CC(=O)CC(=O)Nc1cccc2c1CCCC2,8%
COc1ccc(CCC(=O)Nc2cc(Cl)ccc2N2CCN(C)CC2)cc1,8%
COc1ccccc1CCNC(=O)c1cccn1-c1nnc(N2CCCC2)s1,1%
CCOC(=O)N1CCN(C(=O)CSc2nnc(-c3cc(OC)cc(OC)c3)o2)CC1,-1%
NS(=O)(=O)c1ccc2nc(NC(=O)c3ccc4c(c3)OCCO4)sc2c1,4%
O=C(CC(c1ccco1)S(=O)(=O)c1ccccc1)c1ccc(F)cc1 (configuration not stated),-18%
CC1C(=O)N2CCCc3cc(NC(=O)C(=O)NCCN4CCOCC4)cc1c32 (configuration not stated),-2%
COC(=O)CCCC1=CC2=C(c3ccccc3)C(=O)C(C)(OC(=O)C3CCCC3)C(=O)C2=CN1CCN1CCOCC1 (configuration not stated),-6%
Cc1cc(=O)oc(C)c1C(=O)Nc1ccc(N(C)C)cc1,-2%
CCC(CC)C(=O)Nc1ccc(OCc2cc(=O)n3ccsc3n2)cc1,-9%
O=C(Nc1ccccc1F)C(Cc1ccccc1)N1Cc2ccccc2C1=O (configuration not stated),18%
CC(=O)N1c2ccc(S(=O)(=O)N(C)CC(=O)NCc3ccc(C)cc3)cc2CC1C (configuration not stated),-16%
C=CCc1ccccc1OCc1nc2ccc(C)cc2[nH]1,0%
C=C(C)Cn1c(=O)c2c(nc3n2CC(C)CN3Cc2ccccc2)n(C)c1=O (configuration not stated),-1%
CCOc1ccc(NC(=O)CSc2nc(-c3cccc(Cl)c3)nc3c2Cc2c(CO)cnc(C)c2O3)cc1,-5%
OCC(O)C(O)C(O)C(O)c1nc2ccccc2[nH]1 (configuration not stated),-3%
CCCNC(=O)C1CCCN(S(=O)(=O)c2ccc3c(c2)CC(C)N3C(=O)C2CC2)C1 (configuration not stated),-2%
O=C(NC1(C(F)(F)F)OCCO1)c1ccc(F)cc1,-19%
CN1C(=O)C(O)(CC(=O)c2ccccc2O)c2cc(Br)ccc21 (configuration not stated),-14%
COc1ccccc1NC(=O)N1CCN(CCc2ccccc2)CC1,0%
Cc1cc(C)n2nc(N)c(N=Nc3ccc4c(c3)OCO4)c2n1,-18%
COc1cc2[nH]c(=O)n(CCCC(=O)NCc3ccccc3Cl)c(=O)c2cc1OC,45%[activator]
SMILES,VDR inhibitor
COc1ccc(C2Nc3ccccc3C(=O)N2NS(=O)(=O)c2ccc(C)cc2)cc1OC (configuration not stated),0%
CCOc1ccc(C(=O)Nc2c3c(nn2-c2ccc(F)cc2)CS(=O)C3)cc1 (configuration not stated),-2%
COc1cccc(CN2CC(C(=O)N(C)Cc3nc(C)cs3)CCC2=O)c1 (configuration not stated),-1%
CN1CCN(S(=O)(=O)c2ccc(Cc3ccc(S(=O)(=O)N4CCN(C)CC4)cc3)cc2)CC1,-1%
CCC(C)(C)NC(=O)c1ccc(Br)o1,-12%
CCn1cc(S(=O)(=O)CC(=O)Nc2cccc(C)c2)c2ccccc21,-7%
CC(=O)Nc1ccc(CN2CCc3c([nH]c4ccccc34)C2c2ccccn2)cc1 (configuration not stated),0%
COc1ccc(/C=N/NC(=O)C2C(C=C(Cl)Cl)C2(C)C)c(OC)c1 (configuration not stated),-9%
COc1ccc(-c2cc3ccc(OCC(N)=O)cc3oc2=O)cc1OC,1%
Cc1ccc2nc(C)cc(OCC(=O)O)c2c1,6%
Nc1nc2sc3c(c2cc1C(=O)N1CCOCC1)CCCC3,9%
COC(=O)c1ccccc1S(=O)(=O)N1CCC(C(=O)OCC(=O)c2ccccc2OC)CC1,6%
CCSC1=NCCN1S(=O)(=O)c1ccc(F)cc1,15%
COc1ccc(NC2CCCN(C(=O)c3ccc4[nH]c(C)c(C)c4c3)C2)cc1OC (configuration not stated),2%
CC(NC(=O)CCNC(=O)c1ccc(Br)cc1)c1ccc(S(N)(=O)=O)cc1 (configuration not stated),25%
COc1ccc(CCN2CC(C(=O)NCc3cnn(C(C)C)c3)CCC2=O)cc1 (configuration not stated),2%
